miR-21 reporter – qHTS Assay for Modulators of miRNAs and/orActivators of miR-21. Potency, µM (doses to about 38.3 µM), for inactives: at the highest dose reporter change, positive = more light. AID 2288, 2010. 340,000 tested, under 10 active. HeLa miR-21 FLuc reporter, luciferase, 48 h; active = well fitted rising curve with a large enough effect; inconclusive = small, poorly fitted or top-dose-only effect; inactive = no such curve, though single readings can be large or run the other way;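 also: % of control where 0% means no effect; miR-21 action dims this reporter so a rising signal means less miR-21 action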
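HeLa cells endogenously expressing miR-21, stably carrying CMV-driven firefly luciferase with a downstream miR-21 binding site, 2000 cells/well. Titrations up to approximately 40 uM, 48 hours; luciferase luminescence read.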
Rango complex inh – qHTS Assay for Inhibitors of Rango (Ran-regulated importin-beta cargo) - Importin beta complex formation | Importin subunit beta-1 (Homo sapiens), Q14974 | Rango CFP/YFP FRET sensor + importin beta, 45 min | Potency, µM (titrated, usually from 92.2 µM), for inactives: at the highest dose inhibition of complex formation | 0.031% of 340,000 active; active = rising FRET ratio curve, often small or poorly fitted; inconclusive = mostly compound fluorescence or quenching in the first reads; inactive = flat curves in all reads;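 also: potency is read from the fitted curve at half-maximal effect; 0% = DMSO wells and 100% = buffer wells lacking importin beta; nearly all actives have a fitted effect of over 15% in size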
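FRET biosensor (snurportin 1 IBB flanked by EYFP and cerulean), 50 nM, with compound 5 min, then 0.125 microM importin beta in PBS, 1 mM DTT, 0.02% Tween-20, 0.1% BSA. CFP/YFP ratio read after 45 min at room temperature; pre-read flags interference.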
GLA inh pH 4.5 – qHTS Assay for Inhibitors of Human alpha-Galactosidase at pH 4.5; purified enzyme, 4-MU-alpha-Gal fluorescence, pH 4.5; AID 1467, 2008; 230,000 tested, under 10 active; activity change, negative = inhibition, % at 105 µM; Alpha-galactosidase A (Homo sapiens), P06280; inconclusive = small, poorly fitted or top-dose-only inhibition, or a rising curve; inactive = flat fitted curve, though single readings scatter; no compound was filed as active;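 also: 0% = full activity with enzyme and -100% = basal without enzyme; dose as in the result columns while the protocol names 77 µM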
Target sequence (P06280 whole entry, looked up): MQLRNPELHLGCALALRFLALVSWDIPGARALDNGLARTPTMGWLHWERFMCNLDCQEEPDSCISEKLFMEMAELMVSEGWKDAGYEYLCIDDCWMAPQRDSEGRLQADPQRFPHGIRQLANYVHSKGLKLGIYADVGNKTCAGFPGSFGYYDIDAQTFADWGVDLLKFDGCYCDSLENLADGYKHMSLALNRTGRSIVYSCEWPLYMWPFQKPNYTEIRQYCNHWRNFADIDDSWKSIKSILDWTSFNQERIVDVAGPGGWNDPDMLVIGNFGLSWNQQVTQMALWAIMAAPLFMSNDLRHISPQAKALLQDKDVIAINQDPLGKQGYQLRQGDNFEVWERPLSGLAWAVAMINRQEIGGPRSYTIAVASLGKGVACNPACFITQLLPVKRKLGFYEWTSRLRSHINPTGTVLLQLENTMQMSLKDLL
Rango release inh – qHTS Assay for Inhibitors of RanGTP induced Rango (Ran-regulated importin-beta cargo) - Importin beta complex dissociation. Biochemical FRET Rango-importin beta, RanGTP-induced dissociation. Potency, µM (highest dose often 46.1 µM), for the others: top-dose activity change, negative = inhibition. 0.071% of 340,000 active; active means falling FRET ratio curve, often poorly fitted, with flat reads before Ran was added; inconclusive means other falling curves, or compound fluorescence or quenching; inactive means flat or rising ratio curve;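 also: potency is read from the fitted curve at half-maximal effect; % of control where 0% means no effect; nearly all actives have a fitted effect of over 45% in size; -100% = wells without RanGTP and RCC1; the record marks most hits as doubtful in a second field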
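Compounds preincubate 5 min with complex of recombinant Rango and importin beta in PBS with 1 mM DTT. Ran (0.6 uM) loaded with 2 mM GTP plus 0.2 uM RCC1 starts dissociation; FRET is recorded 45 min later.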
The depositor's hits bear a star; u = inconclusive; x = not tested or not shown.

SMILES | miR-21 reporter | Rango complex inh | GLA inh pH 4.5 | Rango release inh
O=C(OCn1nnc2ccccc2c1=O)c1ccc(S(=O)(=O)N2CCOCC2)cc1 | 0.3% | 5.2% | 1.9 | 4.9%
Cc1cc(C)c(S(=O)(=O)NCC2CCC(C(=O)NCCCN3CCC(C)CC3)CC2)c(C)c1 (stereo not given) | 0.3% | 4.9% | x | -4.2%
CCC(c1nnnn1CCC(C)C)N1CCC(C(N)=O)CC1 (stereo not given) | 0.2% | -0.2% | 7.7 | -1.8%
O=C(c1cccc(Cl)c1)N1CCC2CC1c1cc(N3CCOCC3)ccc12 (stereo not given) | x | 0.0% | x | -8.2%
COc1ccc(C(=O)Nc2ccccc2NC(=O)c2ccco2)c(OC)c1 | 1.4% | 3.6% | -4.6 | -7.1%
CCCc1cc(NCCCCO)n2c(nc3ccccc32)c1C#N | 7.5% | u | u | u
COc1ccc(OCc2cc(C(=O)NCc3cccc(C)n3)no2)c(Cl)c1 | -53.2% | 0.1% | x | 5.6%
CC(OC(=O)c1ccc2ncsc2c1)C(=O)NCc1ccccc1 (stereo not given) | -4.9% | x | -1.4 | x
O=C(O)CCCCN1C(=O)/C(=C\c2ccc(OCc3ccccc3)c(OCc3ccccc3)c2)SC1=S | -1.1% | 6.7% | x | -5.4%
NC(=O)[C@H](Cc1cc2ccccc2s1)NC(=O)[C@@H]1CC2(CC(c3cccc(NC(=O)[C@@H]4CCC(=O)N4)c3)=NO2)CN1C(=O)c1ccccc1 (stereo not given in full) | 0.3% | -6.6% | 5.7 | -12.6%
COc1cccc(C(c2sc3nc(C)nn3c2O)N2CCN(C(=O)c3ccco3)CC2)c1 (stereo not given) | -10.5% | -1.6% | 5.1 | 1.6%
COc1ccc(OCC(=O)NCCNC(=O)c2cccnc2)cc1 | -2.1% | -4.0% | x | -9.0%
O=C1CC(C2CCCO2)C(=O)N1Cc1ccccc1 (stereo not given) | -6.0% | 0.0% | 4.4 | 15.1%
Cc1ccc(NC(=O)CSc2ccccc2NC(=O)c2cccc(Cl)c2)cc1Cl | -10.5% | -0.3% | 3.0 | -14.7%
COc1cc2nc(CC(C)C)n(NC(=O)c3ccccc3)c(=O)c2cc1OC | -5.0% | 1.9% | 6.4 | -8.2%
CCOc1ccc2c(c1)OC(c1ccc(C)cc1)(C(F)(F)F)NC2=O (stereo not given) | 11.5% | -1.7% | 7.4 | 0.7%
Cc1ccc(COC(=O)NCc2cccnc2)cc1 | -2.2% | 5.7% | x | 10.0%
O=C1c2c(Cl)c(Cl)c(Cl)c(Cl)c2C(=O)N1c1nccs1 | x | 0.2% | x | -11.9%
COc1ccc(CCNS(=O)(=O)c2cn(C)cn2)cc1OC | -6.7% | 3.4% | x | 3.1%
O=C(CN(Cc1ccco1)S(=O)(=O)c1ccccc1)N/N=C/c1ccccc1C(=O)O | -0.5% | 1.4% | -4.3 | -9.6%
N#CCC(=O)N/N=C/c1ccc(Sc2nc3ccccc3s2)o1 | -7.9% | -3.7% | -0.7 | 0.1%
CC(=O)Nc1cc[n+](C(C)C(=O)c2ccccc2)cc1 (stereo not given) | -1.2% | 2.4% | x | -10.1%
CCc1cccc(NC(=O)COC(=O)C2CCN(c3ccc(C(F)(F)F)cn3)CC2)c1 | x | 5.1% | x | 7.2%
O=C(CN1C(=O)NC2(CCOc3ccccc32)C1=O)NCC(F)(F)F (stereo not given) | -0.1% | -3.7% | x | 1.1%
Cc1ccc(S(=O)(=O)Nc2ccc(S(=O)(=O)Nc3nccs3)cc2)cc1C | x | -4.7% | x | 11.2%

SMILES | miR-21 reporter | Rango complex inh | GLA inh pH 4.5 | Rango release inh
O=C(c1ccccc1NS(=O)(=O)c1ccc(F)cc1)N1CCCCC1 | 0.3% | -0.4% | x | -2.1%
CCC1CCCCN1CCCNC(=O)c1ccc(CS(=O)(=O)c2ccccc2C)o1 (stereo not given) | -3.9% | -1.6% | x | 0.1%
COc1ccc(CN2CCCCC2C(=O)Nc2ccc(OC)c(OC)c2)cc1OC (stereo not given) | -16.4% | -0.2% | 3.8 | -4.4%
O=C(CC1Sc2ccccc2NC1=O)Nc1cccnc1 (stereo not given) | 0.4% | 1.6% | -9.8 | -1.5%
COc1ccc(-c2noc(C3CCCN(C(=O)c4cccs4)C3)n2)cc1 (stereo not given) | -1.1% | -2.1% | -3.7 | -14.1%
COc1ccc(C(=O)NCCC2=CCCCC2)cc1OC | -47.4% | -0.1% | 9.7 | 4.5%
FC(F)(F)Oc1ccc(-c2cn3cccnc3n2)cc1 | -49.9% | 2.8% | u | -3.3%
CCOC(=O)CSc1nc2c(c(=O)[nH]c(=O)n2C)n1CCCc1ccccc1 | 0.8% | u | -0.7 | 3.8%
CCOC(=O)c1ccc(N2C(=O)CC(Sc3ncccn3)C2=O)cc1 (stereo not given) | 3.3% | 0.6% | x | 12.5%
COc1ccc(NC(=O)[C@H](C)NC(N)=O)cc1S(=O)(=O)Nc1cc(C)ccc1Br | -0.9% | -1.5% | 11.1 | -2.7%
CCNC(=S)N1CCC(C(N)=O)CC1 | -0.5% | 2.7% | -2.7 | 7.5%
Cc1ccc(S(=O)(=O)/N=C(/Nc2ccc3[nH]c(=O)[nH]c3c2)c2ccc(F)cc2)cc1 | -21.6% | -1.5% | 6.2 | -1.5%
O=C(O)COc1ccc(-c2nccc(-c3ccccn3)n2)cc1 | u | 3.4% | -6.3 | 10.2%
O=S(=O)(c1ccc(NCc2ccccc2)cc1)N1CCOCC1 | 8.2% | -0.7% | x | 7.0%
COc1cc(C(=O)OC(C)CN2CCCC2)cc(OC)c1OC (stereo not given) | -7.0% | 2.1% | 9.2 | -1.4%
O=c1cc(N2CCCCC2)c(-c2ccccc2)nn1Cc1c(Cl)cccc1Cl | 1.9% | 1.2% | 10.7 | 11.8%
Cc1ccc(S(=O)(=O)CCC(=O)NCCc2ccc(Cl)cc2)cc1 | -1.6% | 2.4% | x | 14.1%
O=[N+]([O-])c1ccc2c(OCc3nnc(-c4ccccc4Br)o3)ncnc2c1 | -16.1% | -0.4% | 3.7 | -2.7%
N=C1C(c2nc3ccccc3s2)=C(O)CN1Cc1ccccc1 | -12.8% | 1.1% | 4.1 | -5.4%
CCOc1cc(O)c(-c2[nH]ncc2-c2nc(C)cs2)cc1CC | 24.2% | -1.4% | -7.7 | -6.7%
O=C(NC1CCCCC1)N1CCN(c2ccccc2Cl)CC1 | -19.5% | -0.9% | x | -26.0%
O=C(C1CCCO1)N1CCN(C(=S)Nc2ccccc2C(F)(F)F)CC1 (stereo not given) | 0.7% | 3.5% | -15.8 | -8.2%
Cc1ccc(S(=O)(=O)N2CCC(C(=O)OC3CCOC3=O)CC2)cc1C (stereo not given) | x | 3.3% | x | -16.1%
O=C(c1ccc(Cn2c(=S)[nH]c3cc4c(cc3c2=O)OCO4)cc1)N1CCN(c2ncccn2)CC1 | 4.0% | x | -1.4 | x
CC(NS(=O)(=O)c1ccc(OCC(=O)N2CCOCC2)cc1)c1ccccc1 (stereo not given) | -1.4% | -1.3% | 1.7 | -5.1%

SMILES | miR-21 reporter | Rango complex inh | GLA inh pH 4.5 | Rango release inh
CC(C)(C)CN1CCNC(=O)C1CC(=O)NC1Cc2ccccc2C1 (stereo not given) | 1.6% | 3.7% | 7.5 | -15.0%
Cc1ccc2ncnc(-c3ccccc3)c2c1 | -1.9% | 3.7% | x | -3.5%
O=C(CSc1n[nH]c(=O)n1C1CC1)Nc1ccc(Cl)c(Cl)c1 | -2.4% | -1.5% | -9.3 | 5.9%
COC(=O)c1ccc(CSc2nc3ccc(Cl)cc3[nH]2)o1 | -3.1% | 1.5% | 4.4 | 4.8%
Cc1ccc2ccccc2c1Cn1c(-n2ccnc2)nc2c1c(=O)n(C)c(=O)n2C | -1.3% | 0.7% | 2.5 | 1.5%
COc1ccc2c(c1)c(/C=C/c1cc[n+](C)cc1)cn2C | 29.5% | u | x | u
CCC(=O)N1Cc2ccccc2-c2ccccc2C1=O | -1.9% | 1.3% | -1.0 | 3.8%
CCSc1nnc(SCC(=O)c2c(N)n(C)c(=O)n(C)c2=O)s1 | x | 1.9% | x | -3.0%
Cc1cc(C)n2nc(C(=O)Nc3ccccc3N3CCOCC3)nc2n1 | 0.5% | x | -0.1 | x
Cc1c(O)c(CN2CCCC2)cc2c3c(c(=O)oc12)CCC3 | -10.0% | u | 27.2 | u
CN(Cc1ccccc1)S(=O)(=O)c1ccc(OCC(=O)N2CCC(C(N)=O)CC2)cc1 | 1.1% | -0.8% | 6.7 | 13.0%
NC(=O)c1ccc(NC(=O)COC(=O)c2cc3c(s2)CCC3)cc1 | x | u | x | -14.8%
COc1ccccc1NC(=S)NCc1ccc(F)cc1 | 0.9% | 0.9% | x | 0.4%
COc1ccc(S(=O)(=O)N2CCOC23CCN(C(=O)c2ccc(Cl)cc2Cl)CC3)cc1 | 17.9% | 5.3% | x | 18.8%
Cc1cccc(N2CCN(C(=O)c3ccc4nc(-c5ccco5)c(-c5ccco5)nc4c3)CC2C)c1 (stereo not given) | 24.9% | u | -29.3 | u
COc1ccc([N+](=O)[O-])cc1NC(=O)C(C)OC(=O)C1c2ccccc2Oc2ccccc21 (stereo not given) | -2.8% | 1.5% | 9.9 | -10.3%
C=CCn1c2ccccc2c2nnc(SCC(=O)Nc3cc(C)on3)nc21 | -9.1% | -1.0% | 0.0 | 1.8%
CCCN1C(C)C(C(=O)OCC)=CN(Cc2cccc(I)c2)S1(=O)=O (stereo not given) | x | 0.8% | x | 6.7%
N#Cc1ccc(Oc2nc(Nc3ccc(F)cc3)nc(N3CCCC3)n2)cc1 | -2.9% | -2.0% | -2.8 | 2.2%
CC(=O)Nc1cccc(OCC(=O)NS(=O)(=O)c2ccc(C)cc2)c1 | 0.7% | -0.6% | -1.4 | 1.7%
Cc1csc(N(C)C(=O)CSc2nnc(COc3cccc4ccccc34)o2)n1 | 8.8% | -2.9% | -9.6 | -16.4%
CCOC(=O)N/N=C\c1ccc([N+](=O)[O-])s1 | 29.8% | -2.8% | 0.1 | -5.1%
Cc1cc(=O)n2nc(N3CCC(C(=O)NCc4ccco4)CC3)sc2n1 | 3.6% | -3.1% | x | -10.8%
CC/C(=N\Nc1ccc([N+](=O)[O-])cc1)c1ccccc1 | -2.1% | u | 5.0 | u
CC(=O)n1c(-c2ccccc2)c(CO)c2ccccc21 | -20.2% | 3.5% | x | -9.2%

For reference, some entries already given:
SMILES | miR-21 reporter | Rango complex inh | GLA inh pH 4.5 | Rango release inh
CCOC(=O)N/N=C\c1ccc([N+](=O)[O-])s1 | 29.8% | -2.8% | 0.1 | -5.1%
Cc1cc(=O)n2nc(N3CCC(C(=O)NCc4ccco4)CC3)sc2n1 | 3.6% | -3.1% | x | -10.8%
CC/C(=N\Nc1ccc([N+](=O)[O-])cc1)c1ccccc1 | -2.1% | u | 5.0 | u
CC(=O)n1c(-c2ccccc2)c(CO)c2ccccc21 | -20.2% | 3.5% | x | -9.2%

The listing continues:
SMILES | miR-21 reporter | Rango complex inh | GLA inh pH 4.5 | Rango release inh
CCN(CC)CCNC(=O)c1[nH]c2ccc(OCc3ccccc3)cc2c1C | u | 0.2% | -18.9 | -14.1%
O/C(=C\c1nc2ccccc2nc1/C=C(\O)c1ccccc1)c1ccccc1 | -37.7% | u | -4.1 | -16.0%
CCC(C(=O)NC(C)CCc1ccccc1)n1nc(C)n2c(cc3occc32)c1=O (stereo not given) | 0.4% | 3.0% | 2.5 | 9.4%
CC(C)OC(=O)CCC(=O)Nc1nc2ccccc2s1 | -40.6% | 1.0% | 3.4 | u
CCOc1ccc(NS(=O)(=O)c2ccc(C(=O)NC3CCC(O)CC3)cc2)cc1 (stereo not given) | x | -3.4% | x | -8.7%
O=C(N/C(=C/c1ccco1)C(=O)N1CCOCC1)c1ccc([N+](=O)[O-])cc1 | 1.7% | 3.6% | x | -9.2%
O=C(CSc1nnc(-c2ccc([N+](=O)[O-])cc2)o1)Nc1ccccn1 | -34.8% | 0.4% | 8.3 | -0.3%

Only part of the results is shown. The share of hits here may be higher or lower than overall.
